Env_fusion_inh: inhibitors of HIV-1 Env-driven cell-cell fusion, primary screen, HeLa-JRFL effector, CEM21 target cells, luciferase; inhibition, % at 12.3 µM; 360,000 compounds, 1.1% hits;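 active = mean replicate inhibition score of at least 50 and every replicate individually at or above 50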;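 also: 0% = plate neutral controls and 100% = maraviroc near 300 nM; one replicate is shown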
Yeast_UUG_start: modulators of yeast start codon fidelity, primary screen, whole organism, S. cerevisiae, single point, plate reader; AID 602363, 2012; 350,000 compounds, 0.13% hits; S. cerevisiae UUG-firefly luciferase reporter, luminescence/redox ratio; activity score, % at 18.7 µM;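 active = replicate mean at a twofold rise or more, about +100% in these data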;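 also: firefly luciferase made from a UUG start codon reports start codon fidelity; reporter light over untreated wells divided by growth signal over untreated wells; some hits fall short of that in this replicate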
* = called active by the depositor; & = joins results of further samples; [ ] = dose if it differs, or a comment. An excerpt; rates above refer to the full screens.

SMILES Env_fusion_inh Yeast_UUG_start
c1ccc(CNCCCn2cnc3c(OCc4ccccc4)ncnc32)cc1 -7 -18
O=C(N[C@H]1CC[C@H](CCNS(=O)(=O)c2ccc(F)cc2)O[C@@H]1CO)c1cnccn1 -50[16.7_µM] -2
O=C(NCC[C@H]1CC[C@H](NS(=O)(=O)c2ccc(F)cc2)[C@@H](CO)O1)Nc1ccc(F)cc1 4[16.7_µM] -3
O=C(C[C@@H]1C=C[C@@H](NC(=O)C2CCC2)[C@@H](CO)O1)NCCCN1CCOCC1 -21[16.7_µM] -16
Cc1noc(C)c1S(=O)(=O)Nc1ccc2c(c1)C(=O)N([C@@H](C)CO)C[C@H](C)[C@@H](CN(C)Cc1ccc(C(F)(F)F)cc1)O2 19[16.7_µM] -4
C[C@H]1CN([C@@H](C)CO)C(=O)c2cc(Br)cnc2O[C@H]1CN(C)C(=O)Nc1ccccc1 4[16.7_µM] -7
C[C@@H]1CCCCO[C@@H](CN(C)S(C)(=O)=O)[C@H](C)CN([C@H](C)CO)C(=O)c2cc(NC(=O)Nc3cccc4ccccc34)ccc2O1 -7[16.7_µM] 8
COc1ccc(NC(=O)Nc2ccc3c(c2)C(=O)N([C@@H](C)CO)C[C@H](C)[C@@H](CN(C)CC2CCCCC2)O3)cc1 -2[16.7_µM] 11
COc1ccc(NC(=O)N(C)C[C@H]2OCCCC[C@H](C)Oc3ccc(NC(=O)Nc4ccc(F)cc4)cc3C(=O)N([C@@H](C)CO)C[C@H]2C)cc1 -12[16.7_µM] 3
Cc1noc(C)c1S(=O)(=O)Nc1ccc2c(c1)CC(=O)N([C@@H](C)CO)C[C@@H](C)[C@@H](CN(C)Cc1ccc(Cl)c(Cl)c1)O2 -31[16.7_µM] 18
COC(=O)[C@@H]1N=C(c2ccc(OCCCO)cc2)O[C@@H]1c1ccccc1N=[N+]=[N-] -10[16.7_µM] -14
C[C@H](CO)N1C[C@H](C)[C@H](CN(C)C)OCCCC[C@H](C)Oc2ccc(NS(=O)(=O)c3cccs3)cc2C1=O -10[16.7_µM] 3
O=C(CCN1CCCCC1)N[C@H]1CC[C@@H](CCn2cc(-c3cccc(F)c3)nn2)O[C@@H]1CO 0[16.7_µM] -8
C[C@@H]1CN([C@@H](C)CO)C(=O)c2cc(C#CC3(O)CCCC3)cnc2O[C@H]1CN(C)C(=O)Nc1ccc2c(c1)OCO2 20[16.7_µM] 14
Cc1noc(C)c1NC(=O)Nc1ccc2c(c1)CC(=O)N([C@@H](C)CO)C[C@@H](C)[C@@H](CN(C)S(=O)(=O)c1cn(C)cn1)O2 17[16.7_µM] 9
COc1cccc(S(=O)(=O)N[C@H]2CC[C@H](CCn3cc(-c4ccc(F)cc4)nn3)O[C@@H]2CO)c1 19[16.7_µM] 10
O=C(Cc1ccncc1)Nc1ccc2c(c1)[C@@H]1C[C@H](CC(=O)N3CCCCC3)O[C@@H](CO)[C@@H]1O2 5[16.7_µM] -4
Cc1ccc(S(=O)(=O)N[C@@H]2CC[C@H](CCNC(=O)C3CCCC3)O[C@H]2CO)cc1 9[16.7_µM] 12
Cc1noc(C)c1S(=O)(=O)N(C)C[C@H]1Oc2ccc(NC(=O)Nc3cccc4ccccc34)cc2CC(=O)N([C@@H](C)CO)C[C@H]1C 33[16.7_µM] -18
C[C@H](CO)N1C[C@H](C)[C@H](CN(C)Cc2ccc(Cl)c(Cl)c2)Oc2c(NS(=O)(=O)c3ccc(Cl)cc3)cccc2C1=O 91*[16.7_µM] -5
O=C(C[C@H]1CC[C@H](NC(=O)c2ccncc2)[C@@H](CO)O1)NCC1CC1 -19[16.7_µM] 2
C[C@H]1CN([C@@H](C)CO)C(=O)c2cccc(NC(=O)c3cnccn3)c2O[C@H]1CN(C)C(=O)Nc1ccc(F)cc1 4[16.7_µM] 3
O=C(C[C@@H]1C[C@@H]2c3cc(NC(=O)NC4CCCCC4)ccc3O[C@@H]2[C@H](CO)O1)NCC(F)(F)F 21[16.7_µM] -11
COc1ccc(S(=O)(=O)Nc2ccc3c(c2)C(=O)N([C@@H](C)CO)C[C@H](C)[C@H](CN(C)C(=O)NC2CCCCC2)OCCCC[C@@H](C)O3)cc1 -61[16.7_µM] 8
CO[C@H]1CN(C)C(=O)c2ccc(NC(=O)c3ccccc3)cc2OC[C@H](C)N(C)C[C@@H]1C -3[16.7_µM] -9
COc1ccccc1NC(=O)N[C@H]1CC[C@H](CCNS(=O)(=O)c2ccc(F)cc2)O[C@@H]1CO -2[16.7_µM] 17
CCC(=O)N(C)C[C@@H]1Oc2cc(C#Cc3ccccc3)ccc2S(=O)(=O)N([C@H](C)CO)C[C@H]1C 66*[16.7_µM] 13
COC(=O)C[C@H]1CC[C@@H]2[C@@H](COc3ccc(NC(=O)c4ccc(F)c(F)c4)cc3C(=O)N2C)O1 25[16.7_µM] 3
C[C@H](CO)N1C[C@H](C)[C@H](CN(C)C(=O)Nc2ccccc2F)Oc2cc(-c3ccccc3)ccc2S1(=O)=O -3[16.7_µM] 2
Cc1noc(C)c1S(=O)(=O)Nc1ccc2c(c1)C(=O)N([C@H](C)CO)C[C@H](C)[C@@H](CN(C)CC1CC1)OCCCC[C@@H](C)O2 15[16.7_µM] 1
C[C@H](CO)N1C[C@H](C)[C@H](CN(C)C(=O)Nc2ccc3c(c2)OCO3)Oc2ncc(-c3ccccc3)cc2C1=O 22&22[16.7_µM] 6&1
C[C@@H]1CCCCO[C@@H](CN(C)S(C)(=O)=O)[C@H](C)CN([C@H](C)CO)C(=O)c2cc(NS(C)(=O)=O)ccc2O1 3[16.7_µM] 14
CCC(=O)N[C@H]1C=C[C@@H](CC(=O)NCc2ccccc2F)O[C@@H]1CO 6[16.7_µM] 0
C[C@@H]1CCCCO[C@H](CN(C)C(=O)Nc2ccc(C(F)(F)F)cc2)[C@H](C)CN([C@H](C)CO)C(=O)c2cc(NC(=O)Nc3ccc(C(F)(F)F)cc3)ccc2O1 36[16.7_µM] -16
CCCc1cn(CC[C@H]2CC[C@@H](NC(=O)Nc3ccccc3F)[C@@H](CO)O2)nn1 19[16.7_µM] -1
Cc1noc(C)c1NC(=O)Nc1ccc2c(c1)C(=O)N([C@@H](C)CO)C[C@@H](C)[C@H](CN(C)C(=O)Nc1ccc3c(c1)OCO3)OCCCC[C@@H](C)O2 9[16.7_µM] 5
CCC(=O)Nc1ccc2c(c1)OC[C@H](C)N(Cc1ccccc1F)C[C@@H](C)[C@@H](OC)CN(C)C2=O -4[16.7_µM] -4
C[C@H](CO)N1C[C@H](C)[C@@H](CN(C)S(C)(=O)=O)Oc2cc(C#Cc3ccc(F)cc3)ccc2S1(=O)=O 20[16.7_µM] 9
COCC#Cc1ccc([C@@H]2[C@@H](C#N)N(C(=O)NC3CCCC3)[C@@H]2CO)cc1 20[16.7_µM] 6
C[C@@H]1CCCCO[C@@H](CN(C)CC2CC2)[C@H](C)CN([C@@H](C)CO)C(=O)c2cc(NS(=O)(=O)c3ccc(Cl)cc3)ccc2O1 -31[16.7_µM] 47
C[C@@H]1CN([C@H](C)CO)C(=O)c2cc(NC(=O)Nc3ccc(F)cc3)ccc2O[C@@H]1CN(C)Cc1ccc(Oc2ccccc2)cc1 -20[16.7_µM] -1
C[C@@H]1CN([C@H](C)CO)C(=O)Cc2cc(NC(=O)Cc3ccccc3)ccc2O[C@H]1CN(C)S(=O)(=O)c1ccccc1 21[16.7_µM] 10
C[C@H]1CN([C@@H](C)CO)S(=O)(=O)c2ccc(C3=CCCCC3)cc2O[C@@H]1CN(C)S(C)(=O)=O 18[16.7_µM] 27
C[C@@H]1CCCCO[C@@H](CN(C)S(=O)(=O)c2cn(C)cn2)[C@@H](C)CN([C@H](C)CO)C(=O)c2cc(NS(=O)(=O)c3cn(C)cn3)ccc2O1 16[16.7_µM] 11
COc1ccc(NC(=O)Nc2ccc3c(c2)C(=O)N([C@H](C)CO)C[C@H](C)[C@@H](CN(C)C(=O)c2ccccc2)OCCCC[C@@H](C)O3)cc1 -2[16.7_µM] 5
C[C@H](CO)N1C[C@H](C)[C@H](CN(C)C(=O)Nc2ccccc2)Oc2ncc(-c3ccccc3)cc2C1=O 18&-20[16.7_µM] 1&-4
COc1ccc(NC(=O)Nc2cccc3c2O[C@H](CN(C)Cc2ccc(C(F)(F)F)cc2)[C@H](C)CN([C@H](C)CO)C3=O)cc1 -16[16.7_µM] 17
C#Cc1ccc([C@H]2C=C(C(=O)Nc3ccccc3)O[C@@H](OCCCCO)C2)cc1 7[16.7_µM] -18
C[C@H]1CN([C@@H](C)CO)C(=O)c2cc(NS(=O)(=O)c3ccc(Cl)cc3)ccc2O[C@H]1CN(C)S(C)(=O)=O 32[16.7_µM] -8
CN(C)C(=O)C[C@@H]1C[C@@H]2c3cc(NC(=O)NC4CCCCC4)ccc3O[C@@H]2[C@H](CO)O1 1[16.7_µM] 3

Next part
SMILES Env_fusion_inh Yeast_UUG_start
COc1ccccc1-c1ccc2c(c1)O[C@H](CN(C)C(=O)c1ccncc1)[C@H](C)CN([C@@H](C)CO)S2(=O)=O 13[16.7_µM] -7
O=C(C[C@@H]1C[C@H]2c3cc(NC(=O)C4CCOCC4)ccc3O[C@H]2[C@H](CO)O1)NCc1ccccc1F 87*[16.7_µM] 1
C[C@@H]1CCCCO[C@@H](CN(C)C(=O)Cc2ccccc2)[C@H](C)CN([C@@H](C)CO)C(=O)c2cc(NC(=O)Nc3cccc4ccccc34)ccc2O1 -17[16.7_µM] -13
CC(C)NC(=O)N(C)C[C@@H]1OCCCC[C@H](C)Oc2ccc(NS(=O)(=O)c3cn(C)cn3)cc2C(=O)N([C@H](C)CO)C[C@@H]1C -60[16.7_µM] -9
COc1ccc(-c2cn(CC[C@H]3CC[C@H](NC(=O)Cc4ccccn4)[C@@H](CO)O3)nn2)cc1 20[16.7_µM] -9
C[C@@H]1CN([C@H](C)CO)C(=O)c2cc(NS(=O)(=O)c3ccc(Cl)cc3)ccc2O[C@@H](C)CCCCO[C@@H]1CN(C)C(=O)NC1CCCCC1 -133[16.7_µM] -1
C[C@H](CO)N1C[C@H](C)[C@@H](CN(C)Cc2ccc(C(=O)O)cc2)Oc2c(NC(=O)C3CCOCC3)cccc2C1=O -1[16.7_µM] 10
CN1C(=O)c2cc(NC(=O)C3CC3)ccc2OC[C@@H]2O[C@@H](CC(=O)NCC3CCCCC3)CC[C@H]21 -23[16.7_µM] -2
C[C@H](CO)N1C[C@H](C)[C@H](CN(C)CC2CCOCC2)Oc2ncc(C3=CCCCC3)cc2C1=O -10[16.7_µM] -9
C[C@H]1CN([C@@H](C)CO)S(=O)(=O)c2ccc(-c3ccc(C#N)cc3)cc2O[C@H]1CN(C)C 16[16.7_µM] -2
C[C@@H]1CCCCO[C@H](CN(C)C(=O)c2ccccc2)[C@H](C)CN([C@@H](C)CO)C(=O)c2cc(NS(=O)(=O)c3ccc(F)cc3)ccc2O1 -2[16.7_µM] 10
COC(=O)C[C@H]1C[C@@H]2c3cc(NC(=O)Nc4ccc(OC)cc4)ccc3O[C@@H]2[C@H](CO)O1 10[16.7_µM] -14
C[C@@H]1CCCCO[C@H](CN(C)Cc2ccc(Cl)c(Cl)c2)[C@H](C)CN([C@@H](C)CO)C(=O)c2cc(NC(=O)C3CCCCC3)ccc2O1 -8[16.7_µM] 7
C[C@H]1CN([C@@H](C)CO)S(=O)(=O)c2ccc(C3=CCCCC3)cc2O[C@@H]1CN(C)C(=O)C1CC1 22[16.7_µM] 12
COc1ccc(NC(=O)N(C)C[C@H]2OCCCC[C@H](C)Oc3ccc(NC(=O)C4CCCCC4)cc3C(=O)N([C@@H](C)CO)C[C@@H]2C)cc1 -9[16.7_µM] 44
C[C@H](CO)N1C[C@H](C)[C@H](CN(C)C(=O)CN(C)C)Oc2ncc(C#CC3(O)CCCC3)cc2C1=O -7[16.7_µM] 11

Grouped by structure: those above containing an aryl methoxy group (11)
SMILES Env_fusion_inh Yeast_UUG_start
COc1ccc(NC(=O)Nc2ccc3c(c2)C(=O)N([C@@H](C)CO)C[C@H](C)[C@@H](CN(C)CC2CCCCC2)O3)cc1 -2[16.7_µM] 11
COc1ccc(NC(=O)N(C)C[C@H]2OCCCC[C@H](C)Oc3ccc(NC(=O)Nc4ccc(F)cc4)cc3C(=O)N([C@@H](C)CO)C[C@H]2C)cc1 -12[16.7_µM] 3
COc1cccc(S(=O)(=O)N[C@H]2CC[C@H](CCn3cc(-c4ccc(F)cc4)nn3)O[C@@H]2CO)c1 19[16.7_µM] 10
COc1ccc(S(=O)(=O)Nc2ccc3c(c2)C(=O)N([C@@H](C)CO)C[C@H](C)[C@H](CN(C)C(=O)NC2CCCCC2)OCCCC[C@@H](C)O3)cc1 -61[16.7_µM] 8
COc1ccccc1NC(=O)N[C@H]1CC[C@H](CCNS(=O)(=O)c2ccc(F)cc2)O[C@@H]1CO -2[16.7_µM] 17
COc1ccc(NC(=O)Nc2ccc3c(c2)C(=O)N([C@H](C)CO)C[C@H](C)[C@@H](CN(C)C(=O)c2ccccc2)OCCCC[C@@H](C)O3)cc1 -2[16.7_µM] 5
COc1ccc(NC(=O)Nc2cccc3c2O[C@H](CN(C)Cc2ccc(C(F)(F)F)cc2)[C@H](C)CN([C@H](C)CO)C3=O)cc1 -16[16.7_µM] 17
COc1ccccc1-c1ccc2c(c1)O[C@H](CN(C)C(=O)c1ccncc1)[C@H](C)CN([C@@H](C)CO)S2(=O)=O 13[16.7_µM] -7
COc1ccc(-c2cn(CC[C@H]3CC[C@H](NC(=O)Cc4ccccn4)[C@@H](CO)O3)nn2)cc1 20[16.7_µM] -9
COC(=O)C[C@H]1C[C@@H]2c3cc(NC(=O)Nc4ccc(OC)cc4)ccc3O[C@@H]2[C@H](CO)O1 10[16.7_µM] -14
COc1ccc(NC(=O)N(C)C[C@H]2OCCCC[C@H](C)Oc3ccc(NC(=O)C4CCCCC4)cc3C(=O)N([C@@H](C)CO)C[C@@H]2C)cc1 -9[16.7_µM] 44

Screens from PubChem BioAssay.
